SARS PLP yeast = inhibitors of SARS-CoV papain-like protease in yeast. S. cerevisiae expressing SARS-CoV PLpro, growth rescue; control for the full effect not named in the record. 330,000 compounds, 0.19% hits. Potency, µM (top dose mostly 32.9 µM), for inactives: at the highest dose activity, positive = growth rescue. AID 485353; active means well fitted rising curve with a large enough effect; inconclusive means small, poorly fitted or top-dose-only effect; inactive means no such curve, though single readings can be large or run the other way; further: 0% is about no effect; nearly all actives have a fitted effect of over 55% in size; growth read by luminescence after 48 h
Lassa entry inh = blocks Lassa virus binding to or entry into cells | Potency, µM (series often up to 37.9 µM), for the others: at the highest dose activity change, negative = inhibition, most hits filed as inhibitors | 300,000 compounds, 1.2% hits | Lassa virus pseudotype entry inhibition, cell reporter; control for the full effect not named in the record; active means well fitted inhibition curve with a large enough effect; inconclusive means small, poorly fitted or top-dose-only effect, or effect the other way; inactive means flat fitted curve, though single readings scatter; tested in HEK293 cells; further: on the % scale 0 is the no-effect control and ±100 the full control effect; nearly all actives have a fitted effect of over 50% in size; luciferase read-out
RE007 growth inh = less growth of the S. pombe RE007 Vpr strain | 360,000 compounds, 0.21% hits | Potency, µM (series often up to 92.2 µM), without a hit: at the top dose activity change, negative = less growth | S. pombe RE007 Vpr strain, BacTiter-Glo ATP luminescence, 24 h; control for the full effect not named in the record; active = well fitted falling curve with a large enough effect; inconclusive = small, poorly fitted or top-dose-only effect; inactive = no such curve, though single readings can be large or run the other way;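 further: on the % scale 0 is the no-effect control and ±100 the full control effect; nearly all actives have a fitted effect of over 50% in size; the assay follows cell death caused by Vpr and the record does not say whether a fall means rescue or toxicity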
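Fission yeast strain RE007, carrying one chromosomally integrated HIV-1 vpr copy, was seeded at OD 0.01 in PMG+AL medium with 23 nL pinned compound. After 24 h at 30 °C and 99% humidity, viability was read by BacTiter-Glo luminescence.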
MARV entry inh = Marburg virus entry inhibition | 300,000 compounds, 1.8% hits | Potency, µM (top dose mostly 37.8 µM), without a hit: top-dose activity change, negative = inhibition, most hits filed as inhibitors | Marburg virus pseudotyped entry inhibition, cell reporter; control for the full effect not named in the record; about a third of the inactives were read at about 46 µM; active = well fitted inhibition curve with a large enough effect; inconclusive = small, poorly fitted or top-dose-only effect, or effect the other way; inactive = flat fitted curve, though single readings scatter; tested in HEK293 cells; about a fifth of its hits are not listed in these tables; further: on the % scale 0 is the no-effect control and ±100 the full control effect; luciferase read-out
Cruzain inh Det = inhibitors of Trypanosoma cruzi cruzain with detergent; P25779; purified cruzain, Z-FR-AMC fluorescence, 0.01% Triton; Potency, µM, inactives show max response, negative = inhibition, most hits filed as inhibitors; 200,000 compounds, 0.43% hits; AID 1478;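 further: plate controls were neutral wells for no effect and buffer without enzyme for full effect; nearly all actives have a fitted effect of over 40% in size; top concentration of the series not given in the record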
Target sequence (P25779 123-467 limits assumed): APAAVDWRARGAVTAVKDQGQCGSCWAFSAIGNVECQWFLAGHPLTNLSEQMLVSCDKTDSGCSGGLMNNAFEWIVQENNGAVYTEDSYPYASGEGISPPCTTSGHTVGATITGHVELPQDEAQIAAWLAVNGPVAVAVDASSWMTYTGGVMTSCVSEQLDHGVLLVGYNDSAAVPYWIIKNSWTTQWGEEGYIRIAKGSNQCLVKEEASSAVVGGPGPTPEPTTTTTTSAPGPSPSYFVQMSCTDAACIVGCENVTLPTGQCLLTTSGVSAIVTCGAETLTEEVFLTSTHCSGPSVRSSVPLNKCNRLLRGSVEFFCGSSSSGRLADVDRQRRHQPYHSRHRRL
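Detergent-containing run (0.01% Triton X-100) in acetate buffer pH 5.5 with 5 mM DTT: enzyme at 1.5 nM final, 15 min compound preincubation at room temperature, then 2 uM Z-FR-AMC substrate. Activity taken as 60 s fluorescence increase at 360/450 nm.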
NS1 function inh = influenza NS1 inhibition. S. cerevisiae slowed by influenza A NS1, growth recovery by OD600. Potency, µM (series often up to 46.1 µM), without a hit: at the top dose activity, positive = more growth. 270,000 compounds, 0.4% hits; active means well fitted rising curve with a large enough effect; inconclusive means small, poorly fitted or top-dose-only effect; inactive means no such curve, though single readings can be large or run the other way; further: nearly all actives have a fitted effect of over 50% in size
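S. cerevisiae expressing influenza A NS1, grown in glucose, washed, then diluted 1:100 into pH 6.0 -URA galactose medium with 23 nl compound. Growth recovery read as OD600; NS1-free strain serves as control.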
Cruzain noTriton = cruzain (T. cruzi) inhibition without detergent. purified cruzain, Z-FR-AMC fluorescence, no detergent. 200,000 compounds, 2.3% hits. Potency, µM, for inactives: max response, negative = inhibition, usual class: inhibitors. P25779;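 further: plate controls were enzyme without inhibitor for no effect and buffer without enzyme for full effect; nearly all actives have a fitted effect of over 40% in size; top concentration of the series not given in the record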
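Purified cruzain at 1.5 nM, pre-incubated 15 min with compound at room temperature in 100 mM sodium acetate pH 5.5, 5 mM DTT, 0.00005% Triton X-100. Reaction started with 2 uM Z-FR-AMC; AMC fluorescence increase over 60 s gives rate.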
StopGo reporter = FMDV 2A StopGo reporter, luciferase signal; human cells with a luciferase reporter of 2A StopGo recoding; control for the full effect not named in the record; Potency, µM (top dose mostly 57.9 µM), for the others: top-dose signal change, negative = less light; 410,000 compounds, 1.2% hits; active = well fitted falling curve with a large enough effect; inconclusive = small, poorly fitted or top-dose-only effect; inactive = no such curve, though single readings can be large or run the other way; tested in HEK293T cells; further: on the % scale 0 is the no-effect control and ±100 the full control effect; nearly all actives have a fitted effect of over 45% in size; luciferase light after 4 h
Starred values were filed as active, the others as inactive; ? = inconclusive; / = no result given; [ ] = dose if it differs, or a comment. Unless noted, the call rests on the fitted dose curve; in most records, active means well fitted curve in the direction sought with a large enough effect; inconclusive means small, poorly fitted or top-dose-only effect, or another doubt; inactive means no such curve, though single readings can be large; an effect the other way counts as inactive or inconclusive. Potency means the concentration at half of the fitted maximal effect. Compounds as they come. About 4.5% of those tested had a hit in this group.

structure,StopGo reporter,Lassa entry inh,SARS PLP yeast,RE007 growth inh,Cruzain inh Det,MARV entry inh,Cruzain noTriton,NS1 function inh
COC(=O)C1C/C(=N\NS(=O)(=O)c2ccc(C)cc2)c2ccsc2C1 (configuration not stated),26%,-18%,10%,-15%,-2.4%,?,17%,-3%
C=C1CCN([C@@H](C)C(=O)OCc2ccc(C)cc2)S(=O)(=O)c2ccccc21,0%,/,-2%,4%,/,/,/,-6%
COc1ccc(C(=O)Nc2ccccc2C(=O)NCc2ccco2)cc1,5%,-1%[46.1 µM],0%,1%,/,?,/,1%
O=C(c1ccncc1)N1CCN(C(=O)c2ccco2)CC1,4%,-2%,-1%,7%,5.1%,7%,0%,3%
CCOc1ccc(C(=O)Nc2ccc(N3CCN(S(C)(=O)=O)CC3)cc2)cc1[N+](=O)[O-],3%,0%,0%,15%,/,12%,/,3%
CCOc1cccc(C(=O)Nc2ccc(-c3nc4ncccc4o3)cc2C)c1,-13%,-15%[46.1 µM],/,/,-6.7%,/,?,/
CCOc1ccc(NC(=O)c2c(NC(=O)CNCCN3CCOCC3)sc3c2CCC3)cc1,-12%,/,3%,-15%,/,/,/,2.8µM*
CCOCC(=O)Nc1cccc(SC)c1,25%,-5%,0%,5%,/,19%[46.1 µM],/,/
O=C(CN1CCN(C(=O)c2ccccc2)CC1)NC(=O)NCCC1=CCCCC1,-21%,?,2%,-9%,/,0%,/,/
CN(C(=O)CCS(=O)(=O)c1ccc2c(c1)oc(=O)n2C)C1CCCCC1,-17%,?,0%,5%,/,15%[46.1 µM],/,10%
CC(C(=O)NCc1ccc(Cl)cc1)n1ccc2cc(S(=O)(=O)N3CCCC3)ccc21 (configuration not stated),-8%,-15%[46.1 µM],/,/,-5.2%,/,-24%,/
CCNC(=S)N(CCc1c(C)[nH]c2ccc(C)cc12)Cc1ccco1,-13%,-27%,-1%,9%,-6.2%,?,-13%,-19%
Cc1ccc(-n2c(N)c(C(N)=O)sc2=S)c(C)c1,-3%,-9%,1%,1%,-6.7%,17%,-1%,-46%
CC(C)COC(=O)c1ccc(N2C(=O)c3ccccc3C2=O)cc1,-2%,4%,-1%,-7%,/,13%[46.1 µM],/,/
O=S(=O)(c1ccc(Br)s1)N1CCN(c2ccnc3cc(Cl)ccc23)CC1,?,-20%,-3%,4%,/,?,/,-32%
CC(C)n1cnc2cc(NC(=O)c3ccco3)ccc21,13%,?,-5%,-8%,/,-7%[46.1 µM],/,1%
CCC[N+](CC#Cc1ccccc1)(CCC)CC(=O)c1ccc(Cl)cc1,-5%,6%,6%,2%,-4.7%,-23%,5%,-11%
O=C(NCCN1CCCCC1)Nc1ccc([N+](=O)[O-])cc1,-16%,5%,-2%,-9%,/,28%,/,3%
COc1ccc(CNC(=O)CN2CCN(c3cccc(C)c3C)CC2)cc1,-23%,?,1%,-10%,/,0%[46.1 µM],/,2%
COC(=O)C1CCN(C(=O)COc2cc3sc(C)nc3c3sccc23)CC1,-9%,-6%,-6%,1%,1.9%,-1%,-1%,-9%
CC(=O)N1CCCc2cc(S(=O)(=O)N3CCCC(C(=O)Nc4cccc(F)c4)C3)ccc21 (configuration not stated),?,?,-3%,-10%,-3.1%,/,8%,4%
CC(=O)c1c(Cl)nc2ccc(Br)cc2c1-c1ccccc1,?,/,0%,1%,/,/,/,-7%
CC(=O)Nc1ccc2nc3c(=O)[nH]c(=O)[nH]c3nc2c1,/,-5%[46.1 µM],/,/,-7.3%,7%[46.1 µM],11%,/
COc1ccc(Cl)cc1N1C(=O)CC(N2CCc3ccccc32)C1=O (configuration not stated),-8%,9%,10%,-14%,-4.0%,-13%,-16%,-1%
CN(C)C(=O)N1CCN(C(=O)N2CCOCC2)CC1,-8%,6%,-4%,-14%,0.6%,7%,-12%,5%
Cc1cccc(Nc2ncnc(N)n2)c1,0%,0%,0%,-3%,/,5%[46.1 µM],/,2%
O=C(Cc1nc2ccccc2[nH]1)NCc1ccco1,-10%,11%,4%,-13%,-4.6%,13%,-7%,5%
O=C(CCCN1C(=O)/C(=C/c2ccccc2Cl)SC1=S)NNC(=O)c1ccccc1,?,?,8%,-6%,-7.2%,?,-30%,-6%
O=C(COc1ccccc1)Nc1ccc(Cl)c(-c2nc3ncccc3o2)c1,10%,-10%,-17%,10%,-1.9%,-2%[46.1 µM],-10%,-7%
N#Cc1ccccc1NS(=O)(=O)c1cc2c3c(c1)CCC(=O)N3CCC2,33%[activator],-3%,2%,-9%,/,-5%[46.1 µM],/,/
CCOC(=O)c1ccc(NC(=O)CC2Sc3ncnn3C2=O)cc1 (configuration not stated),-8%,3%,-33%,32µM*,-1.4%,-5%,-27%,-111%
Cc1ccc(S(=O)(=O)N2CCC(=O)N(C(COCc3cccc(C)c3)Cc3ccccc3)CC2)cc1 (configuration not stated),-22%,15µM*,-11%,-11%,-3.8%,?,-9%,6%
O=C(CCCn1ncn2c(cc3occc32)c1=O)N1CCc2ccccc2C1,-13%,4%,1%,1%,-0.9%,-8%,3%,12%
O=C(NCN1CCN(CCO)CC1)c1cnccn1,-16%,3%,2%,-22%,3.3%,1%[46.1 µM],-14%,-38%
Cc1cc(C)c(NC(=O)CNC(=O)COC(=O)CNC(=O)c2ccc(Cl)cc2Cl)c(C)c1,16%,-4%,-3%,-5%,/,?,/,/
COc1cccc2[nH]c(C(=O)NCCc3ccccc3)cc12,29%,10%[46.1 µM],-1%,-19%,/,?,/,0%
CCOCc1c(C(=O)N2CCN(CC(=O)Nc3ccc(F)cc3)CC2)oc2ccccc12,-4%,0%,-7%,-11%,/,6%,/,/
CCOc1ccccc1Nc1sc(C(=O)c2ccc(Cl)cc2)c(N)c1C(=O)NCCc1ccccc1,-9%,2%[46.1 µM],/,/,-0.6%,/,?,/
COc1ccc(CNC(=O)COC(=O)CN2C(=O)C3CC=CCC3C2=O)cc1 (configuration not stated),-17%,4%[46.1 µM],0%,5%,/,16%[46.1 µM],/,/
O=S(=O)(c1cccc(-c2nnc(-c3cccnc3)o2)c1)N1CCCCC1,-24%,3%,11%,-3%,-0.2%,-30%,7%,-3%
O=S(=O)(c1ccc(Cl)s1)N1CCN(C/C=C/c2ccccc2)CC1,-30%,23µM*,-2%,5%,-3.9%,?,8%,?
COc1cccc(CN2CCNC(=O)C2CC(=O)N(C)C2CCOCC2)c1 (configuration not stated),1%,/,-6%,8%,/,/,/,0%
CCCCn1c(N)c(N(CCC(C)C)C(=O)CC2CCCCC2)c(=O)[nH]c1=O,2%,?,0%,18%,/,19%,/,/
CCCC(=O)C1=C(O)C(C(=O)OC)C(C)(C)CC1=NCCc1ccc(OC)c(OC)c1 (configuration not stated),-12%,-3%,1%,8%,/,4%[14.2 µM],/,-7%
COC(=O)C1CCN(c2cc(Cl)nc(N)n2)CC1,0%,8%,2%,2%,/,15%[46.1 µM],/,/
CCOc1ccccc1NC(=O)c1ccc(S(=O)(=O)N2CCOCC2)cc1,-15%,-3%,6%,12%,6.1%,-2%,3%,-6%
O=Cc1c[nH]c2ccc(S(=O)(=O)N3CCOCC3)cc12,19%,3%,-21%,43%,-0.6%,18%,1%,5%
O=C(O)COc1ccc(/C=N/NC(=O)C2CCCN2S(=O)(=O)c2ccc(Cl)cc2)cc1 (configuration not stated),-19%,6%,1%,-7%,-4.0%,-2%,-2%,3%
COc1ccc(C=O)cc1COc1ccccc1F,?,?,8%,-18%,-5.6%,?,9%,-12%
COC1CCCCC1NS(=O)(=O)c1ccc(Cl)cc1 (configuration not stated),16%,/,4%,-13%,1.1%,/,3%,1%
COc1ccc(NC(=O)CN(C)C(=O)c2cc3c(s2)CCC(C)C3)cc1 (configuration not stated),8%,5%,-5%,5%,/,6%,/,-51%
CCc1ccc(N2CC(C(=O)N3CCN(c4ccccn4)CC3)CC2=O)cc1 (configuration not stated),-8%,-6%,2%,-7%,/,-4%,/,/
CCc1nnc(NC(=O)CSc2nnc(-c3ccoc3C)n2-c2cccc(C)c2)s1,18%,?,6%,3%,-5.2%,18%[46.1 µM],-11%,-1%
COC(=O)c1cc2c(cc1NC(=O)CSCCc1ccccn1)OCO2,-16%,1%,0%,5%,-2.8%,19%,-11%,-4%
Nc1nc2ccc(C(=O)Nc3ccccc3)cc2s1,18%,?,-4%,-11%,-5.8%,?,-4%,-17%
C=CCn1c(=O)c2c(nc3n2CCCN3CCc2ccc(OC)c(OC)c2)n(C)c1=O,-23%,-24%[46.1 µM],-2%,13%,/,-10%[46.1 µM],/,-5%
Cc1ccc(C2CC(=O)C(C=NCCN3CCN(C(=S)Nc4ccccc4)CC3)=C(O)C2)cc1 (configuration not stated),?,7%,-1%,-16%,/,-4%[46.1 µM],/,-5%
Cc1ccc(S(=O)(=O)NC(=O)NCc2ccc(Cl)cc2)cc1,29%,0%,5%,-5%,5.7%,-23%[46.1 µM],-6%,-9%
COc1cc(CN2CCCC(CCC(=O)NCc3ccc(C)o3)C2)cc2c1OCO2 (configuration not stated),-7%,/,0%,0%,/,/,/,3%
CCOc1ccc2nc(N3CCCC(C(=O)NCc4ccccc4Cl)C3)sc2c1 (configuration not stated),24%,/,/,/,-2.1%,1%[46.1 µM],9%,/
CCCn1c(N)c(C(=O)CSc2nnc3ccccn23)c(=O)n(C)c1=O,13%,-8%,-3%,23%,/,18%,/,/

Compound activity as filed in PubChem BioAssay.
